Vaccinia mCherry: inhibitors of vaccinia virus infection (mCherry reporter signal). AID 720579. Potency, µM (highest dose often 36.5 µM), inactives show top-dose activity change, negative = inhibition, hits mostly inhibitors. Vaccinia virus mCherry reporter infection, fluorescence; about a quarter of the inactives have no number. hit rate 0.63% among 310,000; active = well fitted inhibition curve with a large enough effect; inconclusive = small, poorly fitted or top-dose-only effect; inactive = no such curve, though single readings can be large or run the other way; tested in A549 cells; also: nearly all actives have a fitted effect of over 35% in size; inactives centre near -10
VACV Venus inh: vaccinia inhibition (Venus reporter) | Vaccinia virus Venus reporter expression, fluorescence | Potency, µM (doses to about 36.5 µM), for the others: top-dose activity change, negative = inhibition, actives largely listed as inhibitors | hit rate 0.46% among 330,000 | AID 720580; active means well fitted inhibition curve with a large enough effect; inconclusive means small, poorly fitted or top-dose-only effect; inactive means no such curve, though single readings can be large or run the other way; tested in A549 cells; also: nearly all actives have a fitted effect of over 30% in size; inactives centre near -10
* hit, by the source's call; i = inactive; ? = inconclusive; . = not tested or not shown; & = joins results of further samples; [ ] = another dose, or the depositor's remark. % is scaled to controls: 0 for no effect and ±100 for the full control effect; potency is read from the fitted curve at half-maximal effect.

SMILES	Vaccinia mCherry	VACV Venus inh
CCCCN(CCCC)CCNC(=O)CN1C(=O)COc2ccc(S(=O)(=O)N3CCC(C)CC3)cc21	-2%	-10%
COc1ccc2c(-c3cccnc3)cc(=O)[nH]c2c1	1%	-3%
O=C(NCc1ccc2c(c1)OCO2)C1CC(c2ccc(Cl)cc2)=NO1 (centres undefined)	-12%	5%
O=C(Nc1ccc(NC(=O)c2ccc(Cl)cc2Cl)cc1)c1cccs1	-20%	-19%
Cc1ccc(C(=O)N(CC(=O)NC2CCCCC2)c2ccccc2F)s1	-17%	-15%
COc1cc2c(cc1NC(=O)CCC(=O)O)oc1ccccc12	-6%	-8%
COc1ccc(OC)c(NC(=O)CSc2nc3ccccc3c(=O)n2CC2CCCO2)c1 (centres undefined)	i	-16%
Cc1ccc2[nH]c3c(c2c1)CCC3=O	i	-10%
CCOC(=O)C1CCCN(C(=S)Nc2cccc(Cl)c2)C1 (centres undefined)	-19%	-7%
O=C(c1cccs1)N1CCN(C(=O)c2cccs2)C1=S	?	?
CN(CC(=O)NCCc1ccc(S(N)(=O)=O)cc1)CC(=O)Nc1ccc(Cl)c(C(F)(F)F)c1	-12%	-29%
O=S(=O)(c1cccc2ccccc12)N1Cc2ccccc2-n2nncc2C1	-2%	?
O=C(CCC(=O)N1CCOc2ccccc21)Nc1ccccc1Br	30%[activator]	5%
Cc1cc(C)c2c(c1)c(C)cc1nnc(SCC(=O)c3ccc(F)cc3)n12	-23%	-13%
CCN(c1ccccc1)S(=O)(=O)c1cc(C(=O)O)ccc1C	i	-8%
O=C(COC(=O)c1cc(Br)ccc1Cl)NC1CCCC1	-2%	-15%
OC(c1ccc(F)cc1)c1ncc(-c2ccccc2F)[nH]1 (centres undefined)	5%	-2%
COCCn1c(SCC(=O)Nc2ccc(F)cc2)nc2c(c1=O)SCC2	-27%	-9%
Cc1ncoc1C(=O)NC1CC(C)(C)Cc2c1cnn2-c1ccccc1 (centres undefined)	-15%	-11%
O=C(Nc1ccc(N2CCCCCC2)cc1)c1cccc(S(=O)(=O)N2CCOCC2)c1	-22%	-24%
O=C(Nc1cc(Cl)cc(Cl)c1)c1ccc(F)c(S(=O)(=O)NC2CCCCC2)c1	-7%	-23%
O=C(CSc1ccc(-c2cccs2)nn1)N1CCCCC1	-12%	-7%
CC(=O)Cc1nsc(NC(=O)c2ccc(-c3ccc(Cl)c(Cl)c3)o2)n1	i	-1%
COc1ccc(CNC(=O)CN2C(=O)CCn3nc(-c4cn(C)c5ccccc45)cc32)cc1	-13%	-2%
S=C(NCc1cccs1)Nc1cccc(Cl)c1Cl	i	-16%

(next part)
SMILES	Vaccinia mCherry	VACV Venus inh
C/C=C/c1ccc(OCCCCOc2ccc(OC)cc2)c(OC)c1	-12%	-7%
Cc1noc(C)c1NC(=O)N(C)C[C@H]1Oc2ccc(NS(=O)(=O)c3ccc(F)cc3)cc2C(=O)N([C@H](C)CO)C[C@@H]1C	i	-5%
Cc1ccsc1C(=O)NNC(=O)COc1ccc(Br)cc1	-10%	-7%
Cc1cccc(-c2nc(SCC(=O)Nc3ccc4c(c3)OCCO4)c(-c3ccccc3)[nH]2)c1	-23%	-28%
Cc1ccc(Nc2nc(N)nc(COC(=O)c3ccc(Br)o3)n2)cc1	-1%	-20%
O=C(c1ccccc1)N1CCN(c2cc(Cl)nc3cc(-c4cccc(Cl)c4)nn23)CC1	-8%	-17%
CCOC(=O)C1CCCN(C(=O)CCS(=O)(=O)c2cc3c(cc2Cl)NC(=O)CO3)C1 (centres undefined)	-5%	-4%
CC1CCCC(C)N1S(=O)(=O)c1ccc(NC(=O)CCN2C(=O)C3CC=CCC3C2=O)cc1 (centres undefined)	-14%	-7%
CCOC(=O)[C@H](CCc1ccccc1)N[C@@H](C)C(=O)N1C(C(=O)O)C[C@@H]2CCC[C@@H]21 (some centres undefined)	i	-10%
O=C(CSc1ncnc2c1sc1ccccc12)Nc1ccc(Br)cc1	-6%	-11%
CN(c1ccccc1)S(=O)(=O)c1ccc(C(=O)Nc2cccc(S(=O)(=O)N3CCOCC3)c2)cc1	?	?
Cc1ccc(-c2nnc(N3CCN(C(=O)c4ccco4)CC3)c3ccccc23)cc1	i	?
CC(O)CNc1nc2c(c(=O)n(Cc3ccccc3)c(=O)n2C)n1C (centres undefined)	-13%	3%
CC(=O)NCCCC(=O)NN1C(=S)N(Cc2ccccc2)C(=O)C1CC(=O)Nc1cccc(C)c1 (centres undefined)	-10%	-8%
Cc1cc(C)cc(NC(=O)c2ccc(CNc3c(N4CCCC4)c(=O)c3=O)cc2)c1	i	-10%
CCN(CC)S(=O)(=O)c1ccc2c(c1)N(CC(=O)NCc1ccccn1)C(=O)CO2	-13%	-13%
COc1cc(/C=C/C(=O)OCC(=O)N(CC(C)C)c2c(N)n(Cc3ccccc3)c(=O)[nH]c2=O)ccc1O	i	-8%
O=C(Nc1cccc(Cl)c1N1CCCCC1)c1ccc2c(c1)OCCO2	.	-3%
Cc1ccccc1NC(=O)Nc1nc(C2CCC(=O)N2)cs1 (centres undefined)	-5%	-2%
COc1cccc(CNC(=O)CCC(=O)N2CC(C)Oc3ccccc32)c1OC (centres undefined)	i	-3%
S=c1[nH]c2nc(Cl)c(Cl)nc2[nH]1	-11%	0%
O=C(O)c1ccc(NC(=O)c2ccccc2NC(=O)c2cccc(F)c2)cc1	-6%	-6%
CCOc1ccc(CCNC(=O)c2ccc(OCc3c(C)noc3C)cc2)cc1OCC	-2%	-17%
Cc1cccc(-n2c(-c3csc(C)c3C)n[nH]c2=S)c1	-14%	-2%
O=c1c2ccccc2nc(CSc2nnnn2-c2ccccc2)n1-c1ccccc1Cl	i	-18%

Profiles, looked up by structure. Screens in order: Vaccinia mCherry | VACV Venus inh
`O=c1c2ccccc2nc(CSc2nnnn2-c2ccccc2)n1-c1ccccc1Cl` in the list: i | -18%
`CN(c1ccccc1)S(=O)(=O)c1ccc(C(=O)Nc2cccc(S(=O)(=O)N3CCOCC3)c2)cc1` in the list: ? | ?
`S=c1[nH]c2nc(Cl)c(Cl)nc2[nH]1` in the list: -11% | 0%
`O=C(c1ccccc1)N1CCN(c2cc(Cl)nc3cc(-c4cccc(Cl)c4)nn23)CC1` in the list: -8% | -17%
`COc1cccc(CNC(=O)CCC(=O)N2CC(C)Oc3ccccc32)c1OC` (centres undefined) in the list: i | -3%

Further results follow.
SMILES	Vaccinia mCherry	VACV Venus inh
Cc1ccc(N(C(=O)CCC(=O)Nc2ccccn2)C(C(=O)NC(C)C)c2ccc(F)cc2)cc1 (centres undefined)	2%	-9%
Cc1ccc(C(=O)NNC(=O)C(C)Oc2ccccc2F)cc1S(=O)(=O)N1CCOCC1 (centres undefined)	-12%	-13%
CC(C)CN(CC(C)C)C(=O)Nc1cccc([N+](=O)[O-])c1	-1%	-13%
Cc1cc(C(=O)Cn2nc(C(=O)O)c3ccccc3c2=O)c(C)n1-c1ccccc1	-30%	-21%
CCN(CC)S(=O)(=O)c1nnc(NC(=O)COc2ccccc2Cl)s1	-2%	-9%
CN(C(=O)CSc1nc2ccc(NC(=O)CCc3ccccc3)cc2s1)c1ccccc1	?	?
Cc1ccc(C)c(NC(=S)NC(NC(=O)Cc2ccccc2)C(Cl)(Cl)Cl)c1 (centres undefined)	-18%	-8%
COCCn1c(-c2cccc([N+](=O)[O-])c2)nc2c1c(=O)[nH]c(=O)n2Cc1ccccc1	-9%	-5%
COCC(=O)Nc1cc(C(=O)N2CCN(C3CCCC3)C(=O)C2)c2c(c1)nc(-c1ccncc1)n2C	-9%	4%
Cc1ccc(N2C(N)=NC(N)=NC23CCCC3)c(C)c1	.	1%
COc1ccc(CN2CCNC(=O)C2CC(=O)N(C)C2CCOCC2)cc1OC (centres undefined)	i	-5%
COc1cc(C(=O)Oc2ccccc2/C=N/NC(=O)c2ccc(C)c(Cl)c2)cc(OC)c1OC	5µM*	?
O=[N+]([O-])c1ccc(C2Nc3cccc4cccc(c34)N2)cc1	-18%	-8%
COc1cc(F)ccc1-c1cc(C(=O)Nc2cc(OC)c(OC)c(OC)c2)[nH]n1	-13%	-2%
C=CCOc1ccc(/C=C2\SC(=S)N(C(C(=O)O)c3ccccc3)C2=O)cc1 (centres undefined)	i	2%
c1ccc(N2CCN(Cc3nc4ccccc4[nH]3)CC2)nc1	-10%	-3%
COc1cc(OC)c2c(-c3cccc(-c4ccc(CO)cc4)c3)cc(=O)oc2c1	?	10µM*
COc1ccc(NC(=O)c2ccc(COCC(F)(F)F)cc2)cc1OC	i	-25%
CS(=O)(=O)c1ccc(-c2cc(NC=O)c3ncc(-c4ccc(F)cc4)n3c2)cc1	-30%	?
Cc1ccc(NCc2nnc3n2CCCCC3)c(C)c1	-27%	-14%
CCc1nc2ccc(C(=O)Nc3ccc(OC)c(OC)c3)cn2c1N(C)C(=O)Cc1ccccc1	8%	-8%
CC(C)N1CCSC1=S	-16%	-5%
N#C/C(C(N)=O)=C1/CCCN1Cc1ccccc1	i[7.34 µM]	-15%[7.34 µM]
Cc1cccc(C(=O)OCC(=O)c2ccc3c(c2)NC(=O)CO3)c1	i	-9%
Cc1cc(NC(=O)Cc2ccccc2)cc(-c2nc3ccccc3o2)c1O	0%	15%

(listing goes on)
SMILES	Vaccinia mCherry	VACV Venus inh
CC(C)Oc1ccc(CN=C(N)N=C(N)N)cc1Cl	?	-4%
Cc1ccc(CN2C(=O)N/C(=C/c3ccc(-c4ccc(C(=O)O)cc4)o3)C2=O)cc1	-11%	0%
Cc1nn(C)c(Cl)c1CN1CCN(CCC(C)C)C(CCO)C1 (centres undefined)	-14%	-3%
Cc1ccc(CNC(=O)c2ccc(CS(=O)(=O)c3ccccc3C)o2)cc1	-2%&-15%	-1%&-2%
Cc1ccc(C(=O)N(C)CC(=O)Nc2ccc(N3CCOCC3)cc2)s1	-13%	0%
CCOc1ccccc1OCC(=O)OCC(=O)c1c(C)[nH]c2ccccc12	-10%	-9%
CCc1ccc(OCCCC(=O)NCc2ccccc2)cc1	-26%	-20%
O=C(CSc1ccc(Br)cc1)Nc1ccc(N2CCOCC2)cc1	i	-13%
CCCOc1c(Br)cc(/C=N/O)cc1OC	.	?
CN1C(=O)c2ccccc2N(C)C1c1cccc(O)c1 (centres undefined)	-4%	-10%
Cc1cc(=O)[nH]c2cc(O)ccc12	-15%	-15%
Cc1ccc(N2C(=O)CC(Sc3ncccc3C(=O)O)C2=O)cc1 (centres undefined)	-5%	-8%
CNC(=O)COC(=O)c1ccc(NC(=O)CC#N)cc1	i	-10%
CCOc1ccccc1NC(=O)/C(C#N)=C/c1cccnc1	i	-6%
COc1ccc2c(c1)C(c1ccc(C)o1)=NNC(c1cccnc1)=N2	-17%	-7%
CC(=O)Nc1nc(C)c(Oc2ccc(Cl)cc2Cl)c(=O)[nH]1	.	-3%
Cc1c(NS(=O)(=O)c2cccc(C(=O)N3CCC(C)CC3)c2)c(=O)n(-c2ccccc2)n1C	i	-4%
Cc1cc(C)n(CCNC(=O)CC2C(=O)NCCN2Cc2ccccc2C(F)(F)F)n1 (centres undefined)	-2%	-9%
Cc1ccc(C)c(N2CCN(C(=O)C3CCCN(Cc4nc(-c5cccc(Cl)c5)oc4C)C3)CC2)c1 (centres undefined)	i	-6%
Cc1ccccc1-c1cc2nc(NCCOc3ccccc3)n(C)c(=O)c2s1	-9%	5%
CN(C)S(=O)(=O)c1ccc(NC=O)cc1	-9%	-11%
Cc1ccc(-n2c(C)nnc2SCC(=O)N2CCOCC2)cc1	18%	-9%
O=C(CSCc1cccc(Cl)c1)N/N=C/c1ccc(OCC(=O)N2CCCCC2)cc1	-16%	-27%
COc1cc(C(=O)OCc2ccc(C)cc2)cc(NC(=O)c2cccs2)c1OC	i	-1%
Cc1ccnc(N2CCCC(C(=O)Nc3cccc(C)c3C)C2)n1 (centres undefined)	25%	4%

Random excerpt: five compounds from above.
SMILES	Vaccinia mCherry	VACV Venus inh
Cc1ccc(C(=O)N(C)CC(=O)Nc2ccc(N3CCOCC3)cc2)s1	-13%	0%
COc1ccc2c(c1)C(c1ccc(C)o1)=NNC(c1cccnc1)=N2	-17%	-7%
CCOc1ccccc1NC(=O)/C(C#N)=C/c1cccnc1	i	-6%
Cc1ccccc1-c1cc2nc(NCCOc3ccccc3)n(C)c(=O)c2s1	-9%	5%
CCCOc1c(Br)cc(/C=N/O)cc1OC	.	?

4 compounds out of the list, arranged by length of the SMILES, high to low.
SMILES	Vaccinia mCherry	VACV Venus inh
Cc1cc(C)n(CCNC(=O)CC2C(=O)NCCN2Cc2ccccc2C(F)(F)F)n1 (centres undefined)	-2%	-9%
Cc1ccccc1-c1cc2nc(NCCOc3ccccc3)n(C)c(=O)c2s1	-9%	5%
CC(C)Oc1ccc(CN=C(N)N=C(N)N)cc1Cl	?	-4%
CN(C)S(=O)(=O)c1ccc(NC=O)cc1	-9%	-11%

Remaining list, next part.
SMILES	Vaccinia mCherry	VACV Venus inh
CCOC(=O)C1=C(COC(=O)COc2ccccc2C(C)C)NC(=O)NC1C (centres undefined)	-4%	-1%
COCC(C)n1c(C)cc(C(=O)COc2ccc(N(C)S(=O)(=O)c3ccc(NC(C)=O)cc3)cc2)c1C (centres undefined)	-29%	-28%
CN(Cc1ccon1)Cc1cn(C)nc1-c1ccc2c(c1)OCCO2	-8%	-4%
CCOC(=O)C1C(=O)OC2(CCCC2)C1C(=O)OCC (centres undefined)	-9%	-7%
COC(=O)C1=C(c2ccc(Cl)c(C(F)(F)F)c2)C[C@@H]2CC[C@H]1N2C	-7%	-16%
Cc1cc(C)cc(N/C(N)=N/c2nc(C)cc(C)n2)c1	-25%	?

Compound activity as filed in PubChem BioAssay.
